CtBP-E1A blk: inhibitors of CtBP/E1A interaction. AlphaScreen GST-E1A/His-CtBP binding, 1536-well; stronger effect = lower value; control for the full effect not named in the record. activity change, % (no concentration beside the values). 0.49% of 340,000 active. AID 651724; in the data active means activity change below about -65%; inconclusive means about -30% to -65%; inactive means above about -30%; note: % is set by controls: 0 for no effect and ±100 for the full control effect; compound concentration not given in the record
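In 5 uL wells, 23 nL compound meets equimolar GST-E1A and His-CtBP (5X stock 125 nM each) for 2 h, 37 °C. Beads (5X, 50 ug/mL) then 1 h, 37 °C, dark.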
Six1-Eya2 inh: blocks human Six1 binding to Eya2 | Q15475+O00167 | AlphaScreen GST-Six1/His-Eya2 binding, biochemical; stronger effect = lower value; control for the full effect not named in the record | activity change, % (test concentration not listed) | 0.56% of 360,000 active; in the data active = activity change below about -65%; inconclusive = about -30% to -65%; inactive = above about -30%; note: % is set by controls: 0 for no effect and ±100 for the full control effect; compound concentration not given in the record
Target sequence (O00167 whole entry, looked up): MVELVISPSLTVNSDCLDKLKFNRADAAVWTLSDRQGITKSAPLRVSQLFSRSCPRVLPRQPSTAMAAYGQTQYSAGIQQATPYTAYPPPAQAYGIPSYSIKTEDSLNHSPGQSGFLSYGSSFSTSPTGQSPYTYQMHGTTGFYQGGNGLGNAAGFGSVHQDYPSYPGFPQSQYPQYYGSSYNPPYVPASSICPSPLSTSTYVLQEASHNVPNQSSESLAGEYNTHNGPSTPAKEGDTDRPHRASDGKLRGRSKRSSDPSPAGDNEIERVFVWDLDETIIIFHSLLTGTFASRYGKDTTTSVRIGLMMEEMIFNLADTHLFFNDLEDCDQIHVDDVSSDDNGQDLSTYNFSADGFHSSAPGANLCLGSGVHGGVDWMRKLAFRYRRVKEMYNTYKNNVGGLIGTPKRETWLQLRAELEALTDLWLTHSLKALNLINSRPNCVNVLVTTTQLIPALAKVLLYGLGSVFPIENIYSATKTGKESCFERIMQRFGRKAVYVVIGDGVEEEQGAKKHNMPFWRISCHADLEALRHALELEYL
Target sequence (Q15475 whole entry, looked up): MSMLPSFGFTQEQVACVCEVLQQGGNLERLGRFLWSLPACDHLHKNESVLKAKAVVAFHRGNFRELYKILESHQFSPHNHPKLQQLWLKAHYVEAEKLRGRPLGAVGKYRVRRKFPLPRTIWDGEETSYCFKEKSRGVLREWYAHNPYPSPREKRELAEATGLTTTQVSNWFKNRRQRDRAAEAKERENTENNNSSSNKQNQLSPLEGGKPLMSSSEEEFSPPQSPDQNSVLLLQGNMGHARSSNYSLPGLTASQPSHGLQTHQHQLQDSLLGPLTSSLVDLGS
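Homogeneous AlphaScreen proximity assay pairing GST-Six1 with His-tagged Eya2 (added as 5X mix: 250 nM and 500 nM) in 50 mM Tris pH 8.0, 300 mM NaCl, 1 mM TCEP. Glutathione donor and nickel acceptor beads; 1 h, 37 °C, dark.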
D2 PAM: potentiates the human D2 dopamine receptor allosterically; P14416; DiscoveRx D2 beta-arrestin cells, luminescence, 90 min; 100% = 57 uM dopamine signal; potentiation, % (no concentration beside the values); 0.23% of 360,000 active; active = potentiation of 50% or more; inconclusive = 30% to 50%; inactive = 30% or less;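 note: compound concentration not given in the record; tested on top of an EC20 dose of dopamine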
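PathHunter D2 cells, attached overnight at 37 deg C, received compound in DMSO plus dopamine at EC20 (50 nM final) for 90 min at 37 deg C. Beta-arrestin recruitment was read as luminescence after 1 h with detection reagent at ambient temperature.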
D2 ag: human D2 receptor agonism in beta-arrestin assay; P14416; DiscoveRx PathHunter D2 beta-arrestin, luminescence, 90 min; 100% = 57 uM dopamine signal; activation, % (concentration not given with the values); 0.084% of 360,000 active; AID 624465; in the data active = activation above about 40%; inconclusive = about 15% to 40%; inactive = below about 15%; note: compound concentration not given in the record; the text of the record calls up to 30% inactive
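Agonist mode: compounds alone added to overnight-plated D2 PathHunter cells for 90 min at 37 C, with 57 uM final dopamine (EC100) defining full response. Beta-arrestin recruitment detected by chemiluminescent reagent, read after 1 h at ambient temperature.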
PINK1 modulator: changes PINK1 expression | PINK1 immunofluorescence, high-content cytometry, 24 h | Potency, µM (top dose mostly 76.6 µM), inactives show top-dose activation (PINK1 increase), actives largely listed as activators | 0.2% of 410,000 active | AID 624263; active = well fitted activation curve with a large enough effect; inconclusive = small, poorly fitted or top-dose-only effect; inactive = flat fitted curve, though single readings scatter; cell line not stated here;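 note: potency is the fitted concentration of half-maximal effect; % of control where 0% means no effect; nearly all actives have a fitted effect of over 65% in size; a mitochondrial uncoupler was the plate control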
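PINK1 protein, normally rapidly degraded, was detected by immunofluorescence after 24 hour compound treatment of a stable cell line. Titration data (5 concentrations) came from laser-scanning cytometry, with CCCP-treated wells as controls.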
TRPML1 agonist: human mucolipin-1 channel agonism; Q9GZU1; TRPML1-expressing cells, Ca2+ dye fluorescence, FDSS; host cell line not named in the record; reference of the full effect not given here; activation, % (test concentration not listed); 0.12% of 410,000 active; in the data active = activation above about 50%; inconclusive = about 30% to 50%; inactive = below about 30%; note: 0% is about no effect; the text of the record puts the active cut at 80%
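In this qHTS format, compounds were pin-transferred onto Ca8-dye-loaded TRPML1-DL cells induced with Tet overnight, and intracellular Ca2+ fluorescence was recorded kinetically for 110 s after a 10 s baseline. A subsequent 4uM final 54-4 (EC80) addition followed by a second 110 s read served as the antagonist phase.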
* marks the source's active call; other numbers are inactive results; u = inconclusive; x = not tested or not shown; [ ] = another dose, or the depositor's remark. No enrichment for hits, and some 1.3% of all compounds hit somewhere here.

SMILES	CtBP-E1A blk	Six1-Eya2 inh	D2 PAM	D2 ag	PINK1 modulator	TRPML1 agonist
CCc1nc2c(OCCn3cccc3)cccn2c1N(C)C(=O)C1CC1	-15	-22	-8	-5.0	4.1%	-0.7
O=C(Oc1c(-c2ccccc2)c(=O)n2c3c(cccc13)CC2)c1cccc([N+](=O)[O-])c1	5	0	7	2.7	0.0%	2.1
CC[C@@H](C)[C@@H]1CN([C@@H](CN2CCC[C@H]2CN2C(N)=NC[C@H]2CC(C)C)C(C)C)C(=N)N1CCc1ccc(Cl)c(Cl)c1	-6	6	x	-3.5	0.9%	0.4
O=C1NC[C@@H](CCCCN2C[C@H](Cc3ccc(O)cc3)N(CC3CCCCC3)C(=O)C2=O)N(CCC2CCCCC2)C1=O	-5	-8	x	x	-0.3%	-0.5
CCOC(=O)c1ccc(NC(=O)Nc2ccc(F)cc2)cc1	1	6	10	1.1	7.6%	1.4
CC(C)[C@H](NC(N)=O)C(=O)Nc1ccc(Oc2ccccc2)cc1	6	-3	-2	6.4	0.1%	-0.7
NC(=O)C1CCN(C(=O)c2ccc(-c3ccccc3)cc2)CC1	-1	2	-22	-0.9	-0.6%	0.0
Cc1nn(Cc2ccccc2)c(Cl)c1C(=O)OCC#N	x	-1	-5	3.6	1.3%	0.1
O=C(CSc1nnc(-c2ccc(O)cc2)o1)Nc1ccccc1	11	-7	2	3.4	0.2%	0.0
CN1CCN(C(=O)c2ccccc2N(Cc2ccccc2)S(C)(=O)=O)CC1	0	-3	-19	-3.0	1.7%	0.8
Cc1cc(Cl)ccc1OCC(=O)OCC(=O)NC1CCS(=O)(=O)C1 (configuration not stated)	10	7	-1	7.8	1.7%	3.3
Cc1ccc(NC(=O)CC2C(=O)NC3CCCCC3N2C(=O)c2ccc(F)cc2)cc1C (configuration not stated)	6	8	-22	-2.7	0.6%	2.4
O=C1OCCN1C(=O)[C@H]1[C@H](c2ccc(F)cc2)C(c2ccc(F)cc2)=NN1c1ccc(Br)cc1	7	13	-1	-0.8	-0.6%	0.7
Cc1ccnc(SCC(=O)c2ccc([N+](=O)[O-])cc2)n1	-5	7	22	3.1	0.6%	0.6
CC(=O)Nc1nnc(C)s1	-3	4	-3	-4.3	0.1%	-0.3
O=C(NCc1ccc(F)cc1)C1CCC(=O)N1CCc1ccccc1 (configuration not stated)	3	2	3	-8.2	-1.9%	-0.8
COc1cccc2cc(C(=O)OCC(=O)NCc3ccc4c(c3)OCO4)c(=O)oc12	-5	0	-11	1.1	-0.5%	0.2
Cc1cccnc1NC(=O)c1cc2ccccc2oc1=O	-1	8	-7	-2.4	7.0%	0.3
CC1Cc2ccccc2N1C(=O)COC(=O)c1cccnc1Cl (configuration not stated)	2	0	-7	-1.6	u	-0.2
CCOC(=O)CSc1nc(C)cc(C)c1C(N)=O	8	1	-8	-1.5	0.4%	-0.4
OCCCCNc1cccc2ccccc12	-9	-12	29	3.7	3.7%[38.3 µM]	0.1
Cc1nnc(NC(=O)Cn2cnc3c2c(=O)n(C)c(=O)n3C)s1	-1	3	-5	-0.6	0.2%	0.5
CCOC1=C2[C@@H](CN(S(=O)(=O)c3ccccc3)[C@H]2c2ccccc2)[C@H]2C(=O)N(c3ccccc3)C(=O)[C@H]2C1	-6	-9	-8	-6.0	2.1%	0.5
Cc1ccccc1OCCN1CCC(Cc2ccccc2)CC1	x	-9	-20	-2.9	u	0.5
Cc1ccc(N(C(=O)Cn2nnc(-c3ccccc3F)n2)C(C(=O)NC2CCCC2)c2ccncc2)cc1 (configuration not stated)	5	8	-30	-0.2	3.3%	-0.2

(listing goes on)
SMILES	CtBP-E1A blk	Six1-Eya2 inh	D2 PAM	D2 ag	PINK1 modulator	TRPML1 agonist
CCOc1ccc(Br)cc1S(=O)(=O)N1CCC(C(N)=O)CC1	-15	1	-13	0.6	0.5%	-0.2
COc1cccc(NC(=O)c2cc(OC)c(OC)c(OC)c2Br)c1	1	12	2	-0.7	0.4%	2.8
O=C(CN1CCN(C2CCCCC2)CC1)Nc1ccccc1-c1ccccc1	6	0	-25	-0.5	x	0.7
COc1ccc(Cc2noc(-c3ccc(C)cc3)n2)cc1	48	-21	-1	-1.5	1.2%	3.4
O=C(COc1cccnc1[N+](=O)[O-])NCCc1ccc(Cl)cc1	9	1	-2	-1.4	0.8%	-0.2
COc1ccc(S(=O)(=O)n2c(CCN3CCOCC3)nc3ccccc32)cc1	-4	-3	-19	-2.5	-0.5%	1.0
O=S(=O)(NC(=S)c1ccccc1)c1ccc(Cl)cc1	4	6	-11	-3.5	-1.1%	0.1
Cc1ccc(N2C(=O)CC(Sc3nc(C)cc(C)n3)C2=O)cc1 (configuration not stated)	x	14	-35	-1.5	3.8%	0.0
Cc1csc(SCC(=O)NC(=O)c2ccccc2)n1	-3	5	1	-2.4	1.5%	2.3
N#Cc1sc2nc(-c3cccs3)cc(-c3ccccc3)c2c1N	14	19	-1	1.8	9.9%[38.3 µM]	0.2
O=C(COC(=O)c1ccc(O)cc1)NCCC1=CCCCC1	x	5	21	-4.5	1.2%	1.7
O=C(NC1C=CS(=O)(=O)C1)c1sc2ccccc2c1Cl (configuration not stated)	5	1	-6	0.8	3.9%[38.3 µM]	-0.2
COC(=O)c1cccc(NC(=O)c2cccnc2C(=O)O)c1C	-11	-12	-2	-2.8	0.1%	0.3
CC(=O)N1CCN(Cc2cc(=O)oc3ccc4ccccc4c23)CC1	0	-7	-4	-1.8	0.7%	-0.4
O=C(/C=C/c1cccc(F)c1)OCC(=O)N1CCCC1	u	10	-3	1.8	-0.3%	-0.1
Cc1ccc(N/C(N)=N/c2nc3c(c(=O)[nH]2)CCCC3)c(C)c1	-2	2	-7	3.0	1.4%[38.3 µM]	1.2
O=C(CSc1ncn[nH]1)N1c2ccccc2Sc2ccccc21	-4	-7	2	1.9	-1.1%	2.3
Cn1c(CN2CCN(S(C)(=O)=O)CC2)nc2cc([N+](=O)[O-])ccc21	-16	19	4	-5.9	1.4%	-0.4
COC(=O)C1(CCSC)NC(c2ccccc2OC)C2C(=O)N(C)C(=O)C21 (configuration not stated)	3	-2	0	0.0	-0.7%	-0.9
CCn1c(SCC(=O)N2CCOCC2)nnc1-c1ccco1	1	11	-2	3.5	-0.9%	1.0
CC1=C(C(=O)N(C(C)C)C(C)C)CC(CC(=O)NCCCN(C)C)C(=O)N1Cc1ccccc1 (configuration not stated)	1	2	-3	-4.4	0.9%	-0.5
CC(C)C(=O)N(Cc1cc2ccccc2[nH]c1=O)C(C)(C)C	2	1	-4	-1.3	-1.1%	-0.9
Cc1nc2ccccc2c(=O)n1C1CCCCCC1	-6	-3	13	-1.3	0.2%	-0.6
COc1cc2c(cc1OC)CN(Cc1ccc(OC)c(C)c1OC)CC2	-9	-10	-16	-0.7	-3.3%[38.3 µM]	-0.5
O=C(COC(=O)c1cccc(Cl)c1Cl)NC1CCCCCC1	4	-1	0	-2.8	2.2%	-0.3

Ordered by number of heavy atoms (highest first): 3 of the compounds above
SMILES	CtBP-E1A blk	Six1-Eya2 inh	D2 PAM	D2 ag	PINK1 modulator	TRPML1 agonist
Cc1ccc(N(C(=O)Cn2nnc(-c3ccccc3F)n2)C(C(=O)NC2CCCC2)c2ccncc2)cc1 (configuration not stated)	5	8	-30	-0.2	3.3%	-0.2
O=C(COC(=O)c1cccc(Cl)c1Cl)NC1CCCCCC1	4	-1	0	-2.8	2.2%	-0.3
Cc1nn(Cc2ccccc2)c(Cl)c1C(=O)OCC#N	x	-1	-5	3.6	1.3%	0.1

Only CtBP-E1A blk and D2 ag, for 2 of the compounds above:
mol,CtBP-E1A blk,D2 ag
O=C(NCc1ccc(F)cc1)C1CCC(=O)N1CCc1ccccc1 (configuration not stated),3,-8.2
COc1cccc2cc(C(=O)OCC(=O)NCc3ccc4c(c3)OCO4)c(=O)oc12,-5,1.1

(list continues)
SMILES	CtBP-E1A blk	Six1-Eya2 inh	D2 PAM	D2 ag	PINK1 modulator	TRPML1 agonist
COc1cccc(CNc2cc(CSc3ccc(Cl)cc3)nc(C)n2)c1	10	11	1	2.2	20%	-0.4
CN(CC(=O)Nc1ccc(Cl)c(Cl)c1)C(=O)/C=C/c1ccc(F)cc1	-16	5	-17	-1.1	8.3%	2.7
COC(=O)c1cn(CC(=O)NC2CCCCCC2)c2ccccc12	2	8	0	0.2	2.9%	0.1
COc1ccccc1-c1c(C(F)(F)F)oc2cc(OC(=O)c3ccccc3[N+](=O)[O-])ccc2c1=O	4	1	8	-3.7	5.7%	0.0
CCN(C(=O)CN1CC(C)OC(C)C1)c1c(N)n(Cc2ccccc2)c(=O)[nH]c1=O (configuration not stated)	33	2	-6	6.2	0.2%	0.0
O=C(CCC(=O)N1CCCC1)Nc1ccc(Cl)c(Cl)c1	-24	-11	-20	-5.2	0.2%	2.3
COc1ccc(C2SCC(=O)N2c2ccc(OC)cc2)cc1 (configuration not stated)	0	0	-8	7.4	-3.3%	3.2
Cc1c(Nc2ncnc3nc[nH]c23)c(=O)n(-c2ccccc2)n1C	0	11	-5	-5.5	0.5%	-0.4
COc1ccc(N2CCN(C(=O)Cc3csc(NC(=O)Nc4ccccc4OC)n3)CC2)cc1	-2	u	14	1.1	0.9%	-1.4
Cc1ccc(CC2(c3ccccc3)NC(=O)NC2=O)cc1 (configuration not stated)	-3	0	-5	-3.0	4.2%	-1.0
Cc1c(C)c2ccc(OC(C)C(=O)NCCCn3ccnc3)c(C)c2oc1=O (configuration not stated)	-4	-4	-4	2.7	1.2%	-1.0
C/C(=N\NC(=O)c1cc(-c2ccco2)nc2ccccc12)c1cccnc1	-3	0	-11	-19	7.0%	0.7
CCn1nc(C)c(CNC(=O)CCc2nnc(Cc3c[nH]c4ccccc34)o2)c1C	8	4	-4	-0.6	0.3%	-0.1
COc1cc(OC)cc(C(=O)Nn2cnnc2)c1	-23	-5	-5	-4.6	0.7%	0.5
c1cncc(-c2nn3cnnc3s2)c1	6	-1	10	-1.5	-2.7%	-0.2
CCN(C(=O)COc1ccc2ccc(=O)oc2c1)C1CCCCC1	-6	-4	-2	-0.9	-0.8%	1.4
Cc1cccc(CNc2ccc(S(=O)(=O)N3CCCCC3)cc2)c1	-1	-2	-2	2.3	5.0%	1.0
CSc1ncccc1C(=O)OCc1ccc([N+](=O)[O-])cc1	-6	-5	3	-0.9	7.9%	2.2
CCCCN1C(=O)C(CC(=O)NC2CCCC2)CC(C(=O)N(C(C)C)C(C)C)=C1C (configuration not stated)	0	0	-3	-1.5	-0.3%	-0.1

An excerpt from above in order of the CtBP-E1A blk value, smallest number first:
smiles,CtBP-E1A blk,Six1-Eya2 inh,D2 PAM,D2 ag
COC(=O)c1cccc(NC(=O)c2cccnc2C(=O)O)c1C,-11,-12,-2,-2.8
OCCCCNc1cccc2ccccc12,-9,-12,29,3.7
CCN(C(=O)COc1ccc2ccc(=O)oc2c1)C1CCCCC1,-6,-4,-2,-0.9
Cc1ccc(CC2(c3ccccc3)NC(=O)NC2=O)cc1 (configuration not stated),-3,0,-5,-3.0
Cc1ccc(N/C(N)=N/c2nc3c(c(=O)[nH]2)CCCC3)c(C)c1,-2,2,-7,3.0
COc1ccc(C2SCC(=O)N2c2ccc(OC)cc2)cc1 (configuration not stated),0,0,-8,7.4
N#Cc1sc2nc(-c3cccs3)cc(-c3ccccc3)c2c1N,14,19,-1,1.8

Screens (PubChem)
